DUX4 inh = blocks DUX4-driven transcriptional activation; 293T-iDUX4 ZSCAN4-Gaussia luciferase reporter, 24 h; hits give low values; activity change, negative = inhibition, % (no concentration beside the values); actives 0.8% (n = 37,000); AID 1224904;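 active = -10% or lower and over 25 points stronger than a control reporter; inconclusive = -10% or lower with a smaller gap; inactive = above -10%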;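 also: 0% = median of neutral control wells and -100% = median of positive control wells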
DUX4 inh difference = second read-out of DUX4 inh, no call of its own (marks repeat the call); Gaussia minus Italica difference, %; measured here: selective DUX4 reporter inhibition;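 worked out from the two reporters; negative = selective loss of the DUX4 reporter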
DUX4 inh control = also measured in DUX4 inh; calls as there; activity change, negative = inhibition, %; measured here: Italica tet-on control reporter;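 0 = neutral control and -100 = positive control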
Numbers without * were called inactive; ? = inconclusive; · = no result given.

DUX4 inh	mol	DUX4 inh difference	DUX4 inh control
-1.5	COc1ccc(S(=O)(=O)Nc2ccc3c(c2)C(=O)N([C@H](C)CO)C[C@@H](C)[C@H](CN(C)Cc2ccc(C(F)(F)F)cc2)OCCCC[C@H](C)O3)cc1	-1.5	-0.1
-2.0	C/C=C/c1ccc([C@@H]2[C@H]3CN(C(=O)Nc4cccc(OC)c4)CC(=O)N3[C@H]2CO)cc1	6.4	-8.4
-2.1	N#C[C@H]1N[C@H](CO)[C@H]1c1ccc(C#Cc2ccccc2F)cc1	-3.8	1.7
8.4	COc1ccccc1-c1ccccc1[C@@H]1[C@@H](C#N)N(C(=O)C2CC2)[C@H]1CO	2.8	5.6
0.8	C[C@H]1CCCCO[C@H](CN(C)S(=O)(=O)c2cn(C)cn2)[C@@H](C)CN([C@@H](C)CO)C(=O)c2cc(N(C)C)ccc2O1	1.6	-0.9
?	COc1ccc2c3c([nH]c2c1)[C@@H](CO)N(Cc1ccccc1OC)CC31CN(C)C1	·	·
5.0	CCCNC(=O)[C@H]1[C@H](CO)[C@H]2Cn3c(ccc(-c4cccc(F)c4)c3=O)[C@@H]1N2C(=O)c1ccccn1	7.1	-2.0
5.3	C[C@@H]1CN([C@@H](C)CO)C(=O)c2ccccc2-c2ccccc2CO[C@H]1CN(C)C(=O)[C@@H]1CCCN1C	-5.9	11.2
-7.6	O=C(Nc1ccccc1F)N1CCCCN2[C@@H](CO)[C@H](c3ccc(C4=CCCC4)cc3)[C@@H]2C1	4.3	-11.9
6.1	C[C@@H]1CN([C@H](C)CO)C(=O)CCCn2cc(nn2)CO[C@@H]1CN(C)S(=O)(=O)c1cccc(F)c1	1.2	4.9
0.2	CO[C@@H]1CN(C)C(=O)c2ccc(NS(C)(=O)=O)cc2OC[C@H](C)N(Cc2ccccn2)C[C@@H]1C	-1.4	1.5
?	COc1ccc2c3c([nH]c2c1)[C@H](CO)N(C)CC31CN(S(=O)(=O)c2ccc(C)cc2)C1	·	·
2.9	COc1ccccc1CN1[C@@H](CO)[C@@H]2c3ccccc3N(C(=O)C3CCOCC3)C[C@@H]21	1.3	1.7
?	C[C@@H](NC(=O)C[C@@H]1CC[C@@H]2[C@H](COC[C@H](O)CN2Cc2cc(F)ccc2F)O1)c1ccccc1	·	·
5.0	COc1cccc(NC(=O)N2CC(=O)N3[C@H](CO)[C@@H](c4ccc(C#CC5CCCCC5)cc4)[C@@H]3C2)c1	-2.2	7.2
-2.1	COc1cccc(NC(=O)N(C)C[C@@H]2Oc3cc(C#Cc4ccncc4)ccc3S(=O)(=O)N([C@@H](C)CO)C[C@@H]2C)c1	-4.0	1.9
7.0	CC=Cc1ccc2n(c1=O)C[C@@H]1[C@@H](CO)[C@H](C(=O)NC3CCC3)[C@H]2N1S(=O)(=O)c1cn(C)cn1 (mixture of isomers)	2.8	4.2
4.0	O=C(c1cnccn1)N1CC(=O)N2[C@H](CO)[C@@H](c3ccc(-c4ccccc4)cc3)[C@@H]2C1	-2.9	6.8
?	O=C1CN(S(=O)(=O)Cc2ccccc2)C[C@H]2[C@@H](c3ccc(C#Cc4ccccc4)cc3)[C@H](CO)N12	·	·
0.7	CN1C(=O)c2cc(NS(=O)(=O)c3ccccc3F)ccc2OC[C@H]2O[C@H](CC(=O)NC3Cc4ccccc4C3)CC[C@@H]21	1.1	-0.5
-3.6	COc1cccc(-c2ccc3c(c2)[C@H]2[C@H](CCN2C(=O)Cc2ccncc2)[C@H](CO)N3C)c1	32.4	-36.0
3.0	C[C@@H]1CCCCO[C@H](CN(C)Cc2ccc3c(c2)OCO3)[C@@H](C)CN([C@H](C)CO)C(=O)c2cc(NS(=O)(=O)c3cn(C)cn3)ccc2O1	3.5	-0.5
0.4	CN1C(=O)c2cc(NC(=O)c3ccc(C(F)(F)F)cc3)ccc2OC[C@@H]2O[C@H](CC(=O)NCc3ccc4c(c3)OCO4)CC[C@H]21	2.2	-1.8
-2.8	CO[C@H](CN(C)C(=O)c1ccccc1F)[C@H](C)CN([C@H](C)CO)S(=O)(=O)c1ccc(C)cc1	-0.9	-1.9
-6.4	CCN1[C@@H]2c3ccc(/C=C/c4ccccc4)c(=O)n3C[C@@H]2[C@@H](CO)[C@@H]1C(=O)Nc1nccs1	-1.0	-5.4
0.0	O=C(c1ccccc1)N1[C@H](CO)[C@@H](c2ccccc2)C12CN(Cc1nccs1)C2	3.5	-3.5
-4.8	COc1ccc(CN(C)C[C@H]2OCc3cn(nn3)CCCC(=O)N([C@H](C)CO)C[C@H]2C)cc1	-1.4	-3.4
?	O=C(Nc1ccc(Cl)cc1)N[C@@H]1CC[C@@H](CCn2cc(-c3ccccc3F)nn2)O[C@H]1CO	·	·
-1.7	C/C=C/c1ccc([C@@H]2[C@@H](CN(C)C(=O)CN(C)C)N(C(C)=O)[C@H]2CO)cc1	-0.6	-1.1
2.3	O=C(CC(F)(F)F)N1C[C@@H]2[C@H](c3ccccc31)[C@H](CO)N2C(=O)C1CCOCC1	-5.2	7.5
7.0	COc1ccc(CNC(=O)C[C@H]2C[C@@H]3c4cc(N(C)C)ccc4O[C@@H]3[C@@H](CO)O2)cc1	7.8	-0.8
?	C[C@@H]1CN([C@@H](C)CO)C(=O)c2c(c3ccccc3n2C)-c2ccccc2CO[C@@H]1CN(C)S(=O)(=O)c1cccc(F)c1	·	·
-1.3	CCCC(=O)N1CC2(CCN(C(=O)Nc3cccc(F)c3)CC2)c2c(n(C)c3cc(OC)ccc23)[C@H]1CO	-0.9	-0.4
7.5	COCC(=O)N1CC[C@@H]2[C@@H](CO)N(C)c3ccc(-c4ccc(F)cc4)cc3[C@@H]21	0.0	7.5
2.7	CC(C)NC(=O)N1C[C@H]2[C@@H](c3ccccc31)[C@H](CO)N2Cc1ccc(Cl)cc1	5.8	-3.1
9.3	Cc1cccc(-c2ccc([C@@H]3[C@H](CO)N4C(=O)CN(C(=O)c5cnccn5)C[C@@H]34)cc2)c1	-3.5	12.9
2.6	CNC(=O)C[C@@H]1CC[C@@H]2[C@H](COc3ccc(NC(=O)c4cccc(OC)c4)cc3C(=O)N2C)O1	10.6	-7.9
4.4	C[C@@H]1CN([C@@H](C)CO)C(=O)c2cc(NS(=O)(=O)c3cn(C)cn3)ccc2O[C@@H](C)CCCCO[C@H]1CN(C)C(=O)Nc1cccc2ccccc12	-1.1	5.5
-5.0	O=C(Nc1ccccc1Cl)N1[C@H](CO)[C@@H]2c3ccccc3NC[C@@H]21	-4.3	-0.7
-1.8	C/C=C/c1ccc([C@H]2[C@@H](CO)N(CCC(F)(F)F)[C@@H]2CNC(=O)C2CCC2)cc1	-1.9	0.2
1.3	Cc1nn(C)cc1NC(=O)C[C@@H]1CC[C@@H]2[C@H](COc3ccc(NC(=O)NC(C)C)cc3C(=O)N2C)O1	-6.3	7.7
8.3	COc1ccc2c3c(n(C)c2c1)[C@@H](CO)N(C(=O)CN1CCOCC1)CC31CN(C(=O)C2CC2)C1	17.2	-8.9
0.9	C[C@H](CO)N1C[C@H](C)[C@@H](CN(C)C(=O)c2ccccc2)Oc2cc(-c3cccc(C#N)c3)ccc2S1(=O)=O	2.8	-1.9
1.1	O=C(Cc1ccncc1)N1CC[C@@H]2[C@H]1c1cc(Br)ccc1N[C@@H]2CO	3.1	-1.9
?	CN1c2ccc(C#Cc3cccnc3)cc2[C@H]2[C@H](CCN2S(=O)(=O)c2ccc(F)cc2)[C@@H]1CO	·	·
-0.7	CO[C@H]1CN(C)C(=O)c2ccc(NC(=O)C3CCC3)cc2OC[C@H](C)N(Cc2ccncc2)C[C@H]1C	-1.6	0.9
-1.2	O=C(NC[C@@H]1[C@@H](c2ccccc2)[C@H](CO)N1C(=O)Cc1ccncc1)C1CCC1	2.9	-4.1
0.9	CCCNC(=O)C[C@H]1CC[C@@H]2[C@H](COc3ccc(NS(=O)(=O)c4ccccc4C)cc3C(=O)N2C)O1	3.0	-2.1
2.0	CCCNC(=O)N1[C@H](C#N)[C@H](c2ccc(-c3cccnc3)cc2)[C@H]1CO	-1.2	3.2
10.3	O=C(N[C@@H]1C=C[C@@H](CC(=O)N2CCN(c3ccccc3)CC2)O[C@@H]1CO)c1ccccc1	9.5	0.8

18 entries from above, arranged by SMILES length, falling:
DUX4 inh	mol	DUX4 inh difference	DUX4 inh control
-1.5	COc1ccc(S(=O)(=O)Nc2ccc3c(c2)C(=O)N([C@H](C)CO)C[C@@H](C)[C@H](CN(C)Cc2ccc(C(F)(F)F)cc2)OCCCC[C@H](C)O3)cc1	-1.5	-0.1
7.0	CC=Cc1ccc2n(c1=O)C[C@@H]1[C@@H](CO)[C@H](C(=O)NC3CCC3)[C@H]2N1S(=O)(=O)c1cn(C)cn1 (mixture of isomers)	2.8	4.2
0.9	C[C@H](CO)N1C[C@H](C)[C@@H](CN(C)C(=O)c2ccccc2)Oc2cc(-c3cccc(C#N)c3)ccc2S1(=O)=O	2.8	-1.9
5.0	CCCNC(=O)[C@H]1[C@H](CO)[C@H]2Cn3c(ccc(-c4cccc(F)c4)c3=O)[C@@H]1N2C(=O)c1ccccn1	7.1	-2.0
?	C[C@@H](NC(=O)C[C@@H]1CC[C@@H]2[C@H](COC[C@H](O)CN2Cc2cc(F)ccc2F)O1)c1ccccc1	·	·
?	O=C1CN(S(=O)(=O)Cc2ccccc2)C[C@H]2[C@@H](c3ccc(C#Cc4ccccc4)cc3)[C@H](CO)N12	·	·
2.6	CNC(=O)C[C@@H]1CC[C@@H]2[C@H](COc3ccc(NC(=O)c4cccc(OC)c4)cc3C(=O)N2C)O1	10.6	-7.9
?	CN1c2ccc(C#Cc3cccnc3)cc2[C@H]2[C@H](CCN2S(=O)(=O)c2ccc(F)cc2)[C@@H]1CO	·	·
7.0	COc1ccc(CNC(=O)C[C@H]2C[C@@H]3c4cc(N(C)C)ccc4O[C@@H]3[C@@H](CO)O2)cc1	7.8	-0.8
-7.6	O=C(Nc1ccccc1F)N1CCCCN2[C@@H](CO)[C@H](c3ccc(C4=CCCC4)cc3)[C@@H]2C1	4.3	-11.9
10.3	O=C(N[C@@H]1C=C[C@@H](CC(=O)N2CCN(c3ccccc3)CC2)O[C@@H]1CO)c1ccccc1	9.5	0.8
-1.8	C/C=C/c1ccc([C@H]2[C@@H](CO)N(CCC(F)(F)F)[C@@H]2CNC(=O)C2CCC2)cc1	-1.9	0.2
?	COc1ccc2c3c([nH]c2c1)[C@H](CO)N(C)CC31CN(S(=O)(=O)c2ccc(C)cc2)C1	·	·
7.5	COCC(=O)N1CC[C@@H]2[C@@H](CO)N(C)c3ccc(-c4ccc(F)cc4)cc3[C@@H]21	0.0	7.5
-1.2	O=C(NC[C@@H]1[C@@H](c2ccccc2)[C@H](CO)N1C(=O)Cc1ccncc1)C1CCC1	2.9	-4.1
8.4	COc1ccccc1-c1ccccc1[C@@H]1[C@@H](C#N)N(C(=O)C2CC2)[C@H]1CO	2.8	5.6
1.1	O=C(Cc1ccncc1)N1CC[C@@H]2[C@H]1c1cc(Br)ccc1N[C@@H]2CO	3.1	-1.9
-2.1	N#C[C@H]1N[C@H](CO)[C@H]1c1ccc(C#Cc2ccccc2F)cc1	-3.8	1.7

Continued:
DUX4 inh	mol	DUX4 inh difference	DUX4 inh control
6.6	CN(C)C(=O)[C@@H]1[C@@H](CO)[C@@H]2Cn3c(ccc(C4=CCCC4)c3=O)[C@H]1N2CCC(F)(F)F	0.1	6.5
-8.1	COc1cccc(-c2ccccc2[C@H]2[C@@H](CO)N(C(=O)Nc3ccc(F)cc3)[C@H]2C#N)c1	-13.2	5.1
-0.6	C[C@H]1CN([C@@H](C)CO)C(=O)c2cccc(NC(=O)Nc3ccc(C(F)(F)F)cc3)c2O[C@@H]1CN(C)C(=O)Nc1cccc2ccccc12	-1.0	0.4
-2.5	CC(=O)N(C[C@@H]1N[C@@H](CO)[C@@H]1c1ccc(-c2ccccc2)cc1)C(C)C	-0.1	-2.4
3.8	COc1ccc(-c2cnc3c(c2)C(=O)N([C@@H](C)CO)C[C@H](C)[C@@H](CN(C)Cc2ccc(C(=O)O)cc2)O3)cc1	5.3	-1.5
-4.6	O=C([C@@H]1[C@@H](CO)[C@@H]2Cn3c(cccc3=O)[C@H]1N2C(=O)c1ccc(F)cc1)N1CCCCC1	1.0	-5.5
-2.0	C[C@@H]1CN([C@@H](C)CO)C(=O)c2c(c3ccccc3n2C)-c2ccccc2CO[C@@H]1CN(C)Cc1ccc(Oc2ccccc2)cc1	-11.7	9.7
9.3	CN(C)CC(=O)N1[C@H](CO)[C@H](c2ccccc2-c2cccc(C(=O)N(C)C)c2)[C@@H]1C#N	-2.9	12.1
-1.9	COc1ccc2c3c([nH]c2c1)[C@H](CO)N(C(C)=O)CC31CCN(C(=O)c2ccc3c(c2)OCO3)CC1	-0.2	-1.7
3.8	C[C@H]1CN([C@@H](C)CO)C(=O)c2cccc(NC(=O)Nc3ccc(C(F)(F)F)cc3)c2O[C@H]1CN(C)S(=O)(=O)c1cn(C)cn1	3.1	0.7
-2.5	O=C([C@@H]1N[C@@H]2c3ccc(-c4ccccc4)c(=O)n3C[C@@H]2[C@H]1CO)N1CCOCC1	1.5	-4.1
6.2	CC(=O)N1CC[C@@H]2[C@H]1c1cc(-c3cccc(F)c3)ccc1N(C)[C@@H]2CO	-1.7	7.9
1.9	CCS(=O)(=O)Nc1ccc2c(c1)C(=O)N(C)[C@@H]1CC[C@H](CC(=O)N[C@@H]3CCN(Cc4ccccc4)C3)O[C@H]1CO2	-2.0	3.9
14.5	C/C=C/c1ccc([C@H]2[C@H](CO)N3C(=O)CN(C(=O)Nc4ccc(F)cc4)C[C@@H]23)cc1	6.4	8.1

Record cards, as listed above:
CC(=O)N(C[C@@H]1N[C@@H](CO)[C@@H]1c1ccc(-c2ccccc2)cc1)C(C)C across the screens: DUX4 inh = -2.5; DUX4 inh difference = -0.1; DUX4 inh control = -2.4
C[C@H]1CN([C@@H](C)CO)C(=O)c2cccc(NC(=O)Nc3ccc(C(F)(F)F)cc3)c2O[C@@H]1CN(C)C(=O)Nc1cccc2ccccc12 across the screens: DUX4 inh = -0.6; DUX4 inh difference = -1.0; DUX4 inh control = 0.4

A portion of the library (hit frequency here may not be typical).
